Screens as filed in PubChem.
MITF inhib: inhibitors of MITF, primary screen, MITF inhibitor project, cell-based, luminescence; 37,000 compounds, 0.28% hits; inhibition, % (test concentration not listed); AID 2240, 2010; TRPM1 promoter luciferase, 24 h;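 active = most replicates at 85% or more, or half of them and the mean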;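 note: human melanocyte line stably carrying TRPM1 promoter luciferase reporter; 0% = vehicle wells and 100% = a positive control; the first replicate is given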
* = called active by the depositor. A portion of the library; rates above refer to the full screens.

SMILES | MITF inhib
CCOC(=O)c1c(NC(=S)Nc2cc(OC)c(Cl)cc2OC)sc(C)c1-c1ccccc1 | 8.3
O=C(CC1(O)C(=O)Nc2c(C(F)(F)F)cccc21)c1ccco1 (stereo not drawn) | 6.0
Cn1cc(SCC(=O)O)c2ccccc21 | 22.1
CSc1nsc(SCc2cnc(C)nc2N)n1 | 7.8
O=S(=O)(NCC(O)Cn1c2ccc(Cl)cc2c2cc(Cl)ccc21)c1ccccc1 (stereo not drawn) | 4.7
Cc1nc2ccccc2nc1OCC(=O)c1ccc(Cl)cc1 | -3.1
N#Cc1c(C(F)(F)F)cc(-c2ccco2)nc1SCC(=O)Nc1cccc(C(F)(F)F)c1 | -8.8
Cc1c(Br)c([N+](=O)[O-])nn1C(C)C(=O)N1CCOCC1 (stereo not drawn) | -3.6
COC(=O)c1c(NC(=O)c2ccc(N(C)S(=O)(=O)c3ccc(C)cc3)cc2)sc2c1CCCC2 | -5.2
N#Cc1c(NC(=O)Cn2cnc3ccccc3c2=O)oc(-c2ccccc2)c1-c1ccccc1 | 9.6
O=C(CSc1nc2ncccc2[nH]1)NCc1ccccc1 | -7.3
O=C1c2ccccc2C(=O)N1CCc1nc(-c2ccccn2)no1 | -41.2
O=C(COc1ccc(Cl)cc1)Nc1cccc(-c2nc3ncccc3o2)c1 | -33.0
COc1ccc(C)cc1S(=O)(=O)N(C)CC(=O)Nc1ccccc1SC | -20.9
CCn1c(SCC(=O)N2CCc3ccccc32)nnc1-c1ccccc1O | 6.8
COc1cccc(-c2cc(C(=O)NCc3ccco3)c3cc(C)cc(C)c3n2)c1 | -26.1
Cc1ccc(S(=O)(=O)NCCN2CCOCC2)cc1-c1nnc2c3ccccc3c(C)nn12 | -10.1
COc1ccccc1NC(=O)CSc1nc(C)cc(-c2ccccc2)n1 | 11.4
COc1ccc(-c2noc(CSc3nc4ccccc4c(=O)n3-c3ccccc3)n2)cc1OC | 0.2
COc1ccc(CCNc2ncnc3nc[nH]c23)cc1OC | 9.6
CCCn1c2ccccc2c2nnc(SCCN3CCCCC3)nc21 | 0.5
Cn1c(NCc2ccco2)nc2c1c(=O)n(Cc1cccc(Br)c1)c(=O)n2C | -2.1
CCc1ccc(CCC(=O)Nc2cc(Cl)ccc2Cl)o1 | 7.5
CSc1ccccc1NC(=O)CN(c1cccc(Cl)c1Cl)S(C)(=O)=O | 8.2
O=C(CSc1nc2ccccc2c(=O)[nH]1)Nc1ccc(F)c(Cl)c1 | 12.5
Cn1c(=O)c2c(nc(NCc3cccnc3)n2Cc2ccc(F)cc2)n(C)c1=O | -2.3
O=C(CSc1nc(-c2ccccc2)cc(=O)[nH]1)Nc1cccc(Cl)c1Cl | 2.2
CC(C(=O)NC1CCCCC1)N(c1ccc(Cl)cc1)S(C)(=O)=O (stereo not drawn) | -4.2
CS(=O)(=O)N(CC(=O)Nc1ccc(F)c(F)c1)c1cccc([N+](=O)[O-])c1 | 3.4
CC(C(=O)O)N(c1ccc(Cl)cc1)S(C)(=O)=O (stereo not drawn) | -15.2
CN(C)S(=O)(=O)N(CC(=O)Nc1ccccc1F)c1ccccc1 | -3.8
COc1ccccc1N1CC(C(=O)Nc2cccc(C(=O)O)c2)CC1=O (stereo not drawn) | -27.3
Cc1nc(SCC(=O)c2cc3ccccc3oc2=O)c(C#N)c(C)c1C | -42.3
CC(C)c1ccccc1NC(=O)CN(C)S(=O)(=O)c1ccc(Br)cc1 | 1.3
COc1ccc(NC(=O)CN(c2ccc(Cl)cc2Cl)S(C)(=O)=O)cc1 | -6.9
C=CCNc1nc(N)c(C(=O)Nc2cc(C)on2)s1 | -62.9
Cc1ccc(C)c(OCC(=O)Nc2cccc(C(=O)O)c2C)c1 | -76.2
CCOC(=O)c1c(NC(=O)CN2CCOCC2)sc(C(C)=O)c1C | -5.1
O=c1[nH]c(CSc2nnc(-c3ccccc3)n2-c2ccccc2)nc2ccccc12 | 8.0
COc1cccc(NC(=O)c2ccc(NCc3cccnc3)c([N+](=O)[O-])c2)c1 | 29.6
O=C(Nc1c(Cl)cc(Cl)cc1C(=O)NCc1ccco1)c1cccc([N+](=O)[O-])c1 | 27.5
COc1ccc(C(=O)n2nc(-c3ccc(Cl)cc3)nc2NCc2ccco2)cc1OC | -78.6
Cc1ccc(NC(=O)CSc2nnc(C)n2-c2ccc(Cl)cc2)c(Br)c1 | 7.1
O=C(O)CCC(=O)Nc1cccc(C(F)(F)F)c1 | 6.7
CC(=O)c1ccc(NC(=O)CSc2n[nH]c(C)n2)cc1 | -28.6
COc1ccc(C(=O)CSc2nc3cc(C)c(C)cc3[nH]2)cc1 | 15.3
CCC(Sc1n[nH]c(N)n1)C(=O)Nc1ccc(C)cc1C (stereo not drawn) | 2.9
COc1ccc(-n2nnnc2SCC(=O)Nc2ccc(F)cc2)cc1 | -2.3

Part of the list above in order of count of non-hydrogen atoms, low to high:
SMILES | MITF inhib
CC(=O)c1ccc(NC(=O)CSc2n[nH]c(C)n2)cc1 | -28.6
COc1ccc(C(=O)CSc2nc3cc(C)c(C)cc3[nH]2)cc1 | 15.3
O=C(Nc1c(Cl)cc(Cl)cc1C(=O)NCc1ccco1)c1cccc([N+](=O)[O-])c1 | 27.5

Other compounds follow:
SMILES | MITF inhib
CCc1ccc2oc(-c3ccc(C)c(NC(=O)COc4ccc(Cl)cc4)c3)nc2c1 | -28.7
COc1ccc(-c2nnc(SCCC(=O)O)n2-c2ccccc2)cc1OC | -0.4
CC(=O)c1cc(C)ccc1OC(=O)CCN1C(=O)C2C3c4ccccc4C(c4ccccc43)C2C1=O (stereo not drawn) | 3.2
CN1CCN(c2ccccc2NC(=O)COc2ccc(Br)cc2)CC1 | -30.3
Cc1ccc2oc(-c3ccc(Cl)c(NC(=O)COc4ccc(Br)cc4)c3)nc2c1 | -7.8
O=C(CNS(=O)(=O)c1ccccc1)Nc1cccc(Cl)c1Cl | -24.5
CC12CCC(C(=O)Nc3ccncc3)(c3nc4ccccc4nc31)C2(C)C (stereo not drawn) | -84.9
O=C(COc1ccc([N+](=O)[O-])cc1)Nc1ccc2oc(-c3cccc(F)c3)nc2c1 | -86.7
COc1ccccc1C(=O)NC1(C(F)(F)F)C(=O)N(Cc2ccco2)C2=C1C(=O)CC(C)(C)C2 (stereo not drawn) | -3.4
COc1ccc(C(=O)CSc2nc3sc(C)c(C)c3c(=O)[nH]2)cc1C | 3.0
O=C(CN1C(=O)c2ccccc2S1(=O)=O)Nc1cc(C(F)(F)F)ccc1Cl | -8.0
COc1ccc2c(c1)c(=O)oc1cc(OCC(=O)Nc3cc(C)cc(C)c3)ccc12 | -12.8
Cc1ccc(Nc2nc(Oc3ccc(OCc4ccccc4)nn3)nc(N(C)C)n2)cc1 | 50.3
CCOC(=O)C1CCCCN1Cc1ccc(OC)c(O)c1 (stereo not drawn) | 0.1
CS(=O)(=O)N(CC(=O)NC1CCCCC1)c1cccc(F)c1 | -6.2
COc1ccc(Cc2nnc(SCc3nc4ccccc4c(=O)[nH]3)n2C)cc1 | -1.2
COc1cc2nc(COc3ccccc3[N+](=O)[O-])oc(=O)c2cc1OC | 0.5
Cc1cccc(-c2nc3cc(NC(=O)COc4ccc([N+](=O)[O-])cc4)ccc3o2)c1 | -74.0
CN(CC(=O)Nc1ccc(Cl)cc1C(F)(F)F)S(=O)(=O)c1ccc(Br)cc1 | 4.2
COc1ccc(NC(=O)C(C)N(c2ccc(Cl)cc2)S(C)(=O)=O)c(OC)c1 (stereo not drawn) | -6.1
COc1ccc(N(C(=O)c2cccnc2)S(=O)(=O)c2cccc([N+](=O)[O-])c2)cc1 | 1.3
CCOC(=O)c1c(NC(=O)Cn2cnc3sc(-c4ccccc4)cc3c2=O)sc2c1CCCC2 | -1.4
CCOc1ccc(C(Nc2cccnc2)c2cc(Cl)c3cccnc3c2O)cc1 (stereo not drawn) | 52.6
O=C(Nc1cccc(C(F)(F)F)c1)Nc1cccc(S(=O)(=O)N2CCOCC2)c1 | 55.9

Some values from the results shown:
CN(C)S(=O)(=O)N(CC(=O)Nc1ccccc1F)c1ccccc1 in MITF inhib = -3.8
Cc1ccc2oc(-c3ccc(Cl)c(NC(=O)COc4ccc(Br)cc4)c3)nc2c1 in MITF inhib = -7.8
N#Cc1c(NC(=O)Cn2cnc3ccccc3c2=O)oc(-c2ccccc2)c1-c1ccccc1 in MITF inhib = 9.6

Remaining list, next part
SMILES | MITF inhib
COc1ccccc1CCNC(=O)c1cc(-c2cccs2)nc2ccccc12 | 15.4
Cc1ccc(S(=O)(=O)NC(C)(C)CSc2nnc(N)s2)cc1 | 3.7
Cc1cc(C)c(C#N)c(SCC(=O)Nc2sc3c(c2C#N)CCC3)n1 | -107.3
NC(=O)C1CCN(CCC(=O)Nc2ccc(F)cc2)CC1 | -5.3
CCC(C)c1ccccc1OCC(=O)Nc1ccccc1C#N (stereo not drawn) | 3.2
COc1ccc(NC(=O)CN2CCN(S(=O)(=O)c3ccc4ccccc4c3)CC2)cc1 | -18.0
COc1ccccc1-c1c(C(F)(F)F)oc2cc(OCC(=O)OC(C)C)ccc2c1=O | 0.3
CCOC(=O)CSc1nnc2c3ccccc3n(C)c2n1 | 5.5
COc1ccccc1NC(=O)C(C)N1c2cccc3cccc(c23)S1(=O)=O (stereo not drawn) | -3.6
O=C(CCN1C(=O)c2ccccc2C1=O)Nc1ccc(-c2nc3ccccc3s2)cc1 | -26.2
CCCc1cc(=O)[nH]c(SCC(=O)Nc2ccc(C)cc2C)n1 | -7.2
Cc1cc(C)c(C)c(Oc2coc3cc(OCC(=O)Nc4ccccc4F)ccc3c2=O)c1 | 7.6
CCc1cc2c(=O)n(-c3ccccc3)c(SCC(=O)Nc3ccc([N+](=O)[O-])cc3)nc2s1 | 4.6
CCOC(=O)Nc1ccc2c(c1)N(C(=O)CN1CCOCC1)c1ccccc1CC2 | -5.3
OCCn1c(SCCOc2ccccc2)nc2ccccc21 | -7.7
Cc1ccc(N(CC(=O)Nc2ccccc2-c2ccccc2)S(C)(=O)=O)cc1C | -3.8
Cc1ccc(C(=O)CC(C(=O)O)n2ccc(C)n2)cc1 (stereo not drawn) | -7.1
CCc1c(C)nc(SCC(=O)Nc2ccc(OC)cc2)[nH]c1=O | 4.4
CN(C)S(=O)(=O)N(CC(=O)O)c1ccccc1 | -6.0
Cc1cccc(NC(=O)C2CN(S(=O)(=O)c3ccccc3)CCN2S(=O)(=O)c2ccccc2)c1 (stereo not drawn) | -7.7
COc1ccc(C)cc1S(=O)(=O)NCc1ccccn1 | -15.2
O=C(NCCCn1ccnc1)c1cc(-c2ccc(Br)cc2)nc2ccccc12 | -10.6
COC(=O)c1ccc(Cl)c(NC(=O)CSc2ncn[nH]2)c1 | -3.0
CCOC(=O)C1CCCCN1Cc1cccc([N+](=O)[O-])c1 (stereo not drawn) | 3.0
Cn1c(SCC(=O)Nc2ccccc2C(=O)Nc2ccccc2)nc2ccccc2c1=O | 28.9
Cc1ccccc1OCCn1c(C(C)O)nc2ccccc21 (stereo not drawn) | 9.8
COc1cc(-c2nc3ccccc3s2)cc(Br)c1OCC(N)=O | -11.5
COCc1nc2ccccc2n1CCOc1ccc(Cl)cc1 | -1.0
CCc1nc(SCC(=O)Nc2c(C)cc(C)cc2[N+](=O)[O-])n[nH]1 | -7.9
Cc1ccc(C)c(N2CCN(CC(=O)Nc3ccc([N+](=O)[O-])cc3C(=O)Nc3ccccc3F)CC2)c1 | -5.6
NC(=O)CC1C(=O)N(c2ccc(Cl)cc2)C(=S)N1Cc1cccnc1 (stereo not drawn) | 11.5
O=C(CSc1nc2scc(-c3ccco3)c2c(=O)n1-c1ccccc1)N1CCOCC1 | -23.1

Of the compounds above, 14 have an NH in an aromatic ring:
SMILES | MITF inhib
O=C(CSc1nc2ncccc2[nH]1)NCc1ccccc1 | -7.3
COc1ccc(CCNc2ncnc3nc[nH]c23)cc1OC | 9.6
O=C(CSc1nc2ccccc2c(=O)[nH]1)Nc1ccc(F)c(Cl)c1 | 12.5
O=C(CSc1nc(-c2ccccc2)cc(=O)[nH]1)Nc1cccc(Cl)c1Cl | 2.2
O=c1[nH]c(CSc2nnc(-c3ccccc3)n2-c2ccccc2)nc2ccccc12 | 8.0
CC(=O)c1ccc(NC(=O)CSc2n[nH]c(C)n2)cc1 | -28.6
COc1ccc(C(=O)CSc2nc3cc(C)c(C)cc3[nH]2)cc1 | 15.3
CCC(Sc1n[nH]c(N)n1)C(=O)Nc1ccc(C)cc1C (stereo not drawn) | 2.9
COc1ccc(C(=O)CSc2nc3sc(C)c(C)c3c(=O)[nH]2)cc1C | 3.0
COc1ccc(Cc2nnc(SCc3nc4ccccc4c(=O)[nH]3)n2C)cc1 | -1.2
CCCc1cc(=O)[nH]c(SCC(=O)Nc2ccc(C)cc2C)n1 | -7.2
CCc1c(C)nc(SCC(=O)Nc2ccc(OC)cc2)[nH]c1=O | 4.4
COC(=O)c1ccc(Cl)c(NC(=O)CSc2ncn[nH]2)c1 | -3.0
CCc1nc(SCC(=O)Nc2c(C)cc(C)cc2[N+](=O)[O-])n[nH]1 | -7.9
